HIV Env fusion = inhibitors of HIV-1 Env-driven cell-cell fusion, primary screen, HeLa-JRFL effector, CEM21 target cells, luciferase | inhibition, % at 12.3 µM | 1.1% of 360,000 active | AID 651610, 2012;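 active = mean replicate inhibition score of at least 50 and every replicate individually at or above 50; inconclusive = only one of the two criteria met; inactive = mean below 50 and not all replicates reaching 50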;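 note: 0% = plate neutral controls and 100% = maraviroc near 300 nM; one replicate is shown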
CSC inhib = cancer stem cell viability inhibitors, primary screen, luminescence; cancer stem cell-like cells viability; inhibition, % at 7.5 µM; 1.1% of 300,000 active; AID 2717, 2010;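 active = mean at 75% or more and at least half the replicates too; inconclusive = mean and replicates disagree; tested in HMLE shEcad cells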;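 note: 0% = median of negative and 100% = median of positive control wells; the first replicate is given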
Rce1 inhib = yeast Rce1p protease inhibitors, primary screen, biochemical, fluorescence, cell-free homogeneous; CAAX prenyl protease 2 (Saccharomyces cerevisiae (strain ATCC 204508 / S288c)), Q03530; yeast membranes, quenched prenylated peptide cleavage fluorescence; calls only; 0.27% of 290,000 active;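 active = fall in fluorescence gain of 50% or more versus controls, with final raw signal at or below 3038400; inconclusive = same 50% fall but final raw signal above 3038400; inactive = fall in fluorescence gain under 50%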;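 note: plate controls were neutral control wells for no effect and wells lacking membranes for full effect; tested at 10 µM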
Target sequence (Q03530 whole entry, looked up): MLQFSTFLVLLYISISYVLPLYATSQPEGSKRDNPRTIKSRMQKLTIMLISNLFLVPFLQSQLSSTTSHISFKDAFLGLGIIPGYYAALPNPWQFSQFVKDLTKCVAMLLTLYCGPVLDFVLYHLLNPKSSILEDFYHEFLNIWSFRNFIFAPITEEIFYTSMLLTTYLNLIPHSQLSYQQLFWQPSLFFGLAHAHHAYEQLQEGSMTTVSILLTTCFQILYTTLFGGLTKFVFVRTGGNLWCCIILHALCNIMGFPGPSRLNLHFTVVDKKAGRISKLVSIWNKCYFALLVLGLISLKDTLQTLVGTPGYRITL
MT1-MMP act inh = blockers of MT1-MMP proenzyme processing, primary screen, HT1080 RFP-PRO-GFP cells, GFP/RFP fluorescence; Matrix metalloproteinase-14 (Homo sapiens), P50281; GFP/RFP ratio fluorescence, overnight; percent of plate control window, DMSO zero; GFP/RFP ratio change, % at 20 µM; 0.061% of 360,000 active; AID 651647, 2012;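 active = GFP/RFP ratio change of at least 30% with cell ATP level not reduced by more than half and red fluorescence within 50% of control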; note: strong numbers were not always called active
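Compound: 20 µM single dose, 1% DMSO / System: HT1080 RFP-PRO-GFP cells / Controls: DMSO and RFP-L50D-GFP cell wells / Read-out basis: GFP/RFP fluorescence ratio / Schedule: overnight compound exposure at 37 °C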
PABP FP inh = PABP poly(A) RNA binding inhibitors, primary screen, biochemical, fluorescence polarization, uHTS | inhibition, % at 35 µM | Polyadenylate-binding protein 1 (Homo sapiens), P11940 | 1% of 290,000 active | AID 2014, 2009;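 active = 50% or more with normal probe brightness, or confirmed in later tests; inconclusive = above 50% with abnormal brightness, or retests that disagree; inactive = below 50% or failed in later tests; about a fifth of its hits are not listed in these tables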;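 note: calls also rest on retests at 20 µM and on dose response follow-up; controls were probe without protein and protein plus probe with vehicle; some compounds called inactive have numbers as strong as hits; many hits fall short of the cut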
eIF4H FP inh = human eIF4H binding inhibitors, primary screen, translation initiation inhibitor project, biochemical, uHTS, fluorescence polarization; Eukaryotic translation initiation factor 4H (Homo sapiens), Q15056; eIF4H fluorescence polarization binding assay; inhibition, % at 35 µM; 0.94% of 290,000 active; AID 2012, 2009;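 active = 50% or more with normal probe brightness, or confirmed in later tests; inconclusive = above 50% with abnormal brightness, or retests that disagree; inactive = below 50% or failed in later tests; about a fifth of its hits are not listed in these tables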;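 note: calls also rest on retests at 20 µM and on dose response follow-up; 0% = protein and probe with vehicle and 100% = probe without protein; strong numbers were not always called active; many hits fall short of the cut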
Yeast UUG start = modulators of yeast start codon fidelity, primary screen, whole organism, S. cerevisiae, single point, plate reader; S. cerevisiae UUG-firefly luciferase reporter, luminescence/redox ratio; activity score, % at 18.7 µM; 0.13% of 350,000 active; AID 602363, 2012;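 active = replicate mean at a twofold rise or more, about +100% in these data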;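 note: firefly luciferase made from a UUG start codon reports start codon fidelity; reporter light over untreated wells divided by growth signal over untreated wells; some hits fall short of that in this replicate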
MT1-MMP act inh RFP = further read-out of MT1-MMP act inh, marked with its call; RFP signal change, %; measured here: RFP expression control read;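 0 = vehicle wells; hits needed this value within 50% of zero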
Numbers without * were called inactive; i = inactive; ? = inconclusive; nt = not tested or not shown; + = active, no number; & = joins results of further samples.

SMILES	HIV Env fusion	CSC inhib	Rce1 inhib	MT1-MMP act inh	MT1-MMP act inh RFP	PABP FP inh	eIF4H FP inh	Yeast UUG start
COc1ccc(N2C(=O)C3C(c4ccc(OC)cc4O)NC(Cc4ccccc4)(C(=O)O)C3C2=O)cc1 (configuration not stated)	15	0	i	1	5	-2	-12	nt
COc1ccc(COc2cccc(C=O)c2)cc1	-12	-12	i	0	2	nt	nt	-5
COc1ccc(NC(=O)C2CCC(CNC(=O)[C@@H]3Cc4ccccc4CN3)CC2)cc1 (some centres not stated)	4	-6	i	-1	3	0	3	-26
CN(CCO)c1cc(NCCCN2CCC(Cc3ccccc3)CC2)c2nonc2c1[N+](=O)[O-]	-21	-1	i	10	2	0	-7	7
O=C(c1ccc(-c2ccc([N+](=O)[O-])cc2)o1)N1CCCC(C(F)(F)F)C1 (configuration not stated)	-15	14	i	2	-6	nt	nt	-10
COc1ccc(CNC(=O)C[C@@H]2C[C@H]3c4cc(NC(=O)NC5CCCC5)ccc4O[C@H]3[C@H](CO)O2)cc1	-14	nt	nt	1	0	nt	nt	-1
CCNS(=O)(=O)c1ccc(CCC(=O)NCc2ccncc2)cc1	7	-3	i	1	3	5	3	-19
CCC(O)c1nc2ccccc2n1CCc1ccccc1 (configuration not stated)	18	-14	i	-1	-1	-11	-2	-26
O=c1oc(-c2cccs2)nc2sc3c(c12)CCC3	nt	-6	i	0	3	12	-4	-14
CS(=O)(=O)N(CC(=O)NCc1ccncc1)C1CCCCC1	-11	-4	i	-1	3	-6	-6	nt
Cc1ccc(S(=O)(=O)Nc2cc(Cl)c(O)cc2C)cc1	26	-7	i	4	-8	-3	-5	-11
O=C(CCC(=O)N1CCOCC1)NCCc1ccccc1	-16	nt	nt	-2	2	nt	nt	3
CC(C)N1C(=S)SC(C)(C)C1n1oc(=O)n(-c2cccc(Cl)c2)c1=O (configuration not stated)	12	7	i	-2	2	-15	-8	-3
COCCNC(=O)c1csc(Nc2cccc3ccccc23)n1	10	-6	i	5	2	-8	4	-18
Cc1cc(O)c(NC(=O)c2cccc([N+](=O)[O-])c2)cc1C	-33	-10	i	3	1	-6	-5	-3
CCC(=O)Oc1ccc2c(c1)OC1(OC(C)=O)OC(C)CC1=C2C (configuration not stated)	-20	-2	i	-1	4	8	-6	-1
NC(=S)Cc1ccccc1Cl	-7	-3	i	2	8	-4	-1	nt
Cc1nc2cc(NC(=O)c3ccc([N+](=O)[O-])s3)ccc2s1	40	6	i	-1	-22	-15	-6	-9
COc1ccc(C(=O)Nn2c(SCC(=O)N3CCC(C)CC3)nc3ccccc3c2=O)cc1	15	11	i	-3	-2	5	-2	-78
Cc1cccc(NC(=O)CSCC(=O)N(C)Cc2c(F)cccc2Cl)c1	-4	0	i	2	-1	nt	nt	nt
COc1ccc(S(=O)(=O)N(CC(=O)NCc2ccco2)c2ccccc2)cc1	-2	-5	i	1	6	2	-4	3
O=C(CNC(=O)c1ccccc1)NC1(C(=O)NC2CCCCC2)CCCCC1	-3	-3	i	-2	3	-6	-6	-4
COc1ccc(S(=O)(=O)NCc2ccccn2)c(Cl)c1Cl	nt	-16	nt	4	3	-5	-15	-19
CC1CCCCC12NC(=O)N(CC(=O)OCc1c(F)cccc1Cl)C2=O (configuration not stated)	-9	-9	nt	-1	-5	nt	nt	-1
O=S(=O)(Nc1ccc(S(=O)(=O)N2CCCCCC2)cc1)c1cccs1	-9	-3	i	5	-1	-10	-3	-8

Entries listed so far containing a thiophene ring, fused or not, in the order listed:
SMILES	HIV Env fusion	CSC inhib	Rce1 inhib	MT1-MMP act inh	MT1-MMP act inh RFP	PABP FP inh	eIF4H FP inh	Yeast UUG start
O=c1oc(-c2cccs2)nc2sc3c(c12)CCC3	nt	-6	i	0	3	12	-4	-14
Cc1nc2cc(NC(=O)c3ccc([N+](=O)[O-])s3)ccc2s1	40	6	i	-1	-22	-15	-6	-9
O=S(=O)(Nc1ccc(S(=O)(=O)N2CCCCCC2)cc1)c1cccs1	-9	-3	i	5	-1	-10	-3	-8

The results go on.
SMILES	HIV Env fusion	CSC inhib	Rce1 inhib	MT1-MMP act inh	MT1-MMP act inh RFP	PABP FP inh	eIF4H FP inh	Yeast UUG start
COCCNC(=O)Cn1nc(C)c2ccccc2c1=O	nt	-5	i	-7	2	-1	0	-10
CCN(CC)C(=O)c1sc2nc(-c3ccc(OC)cc3)cn2c1C	-81	-5	i	2	2	-9	-16	-23
COc1ccc(CCNC(=O)CC2COc3ccccc3O2)cc1OC (configuration not stated)	-17	-4	i	5	0	0	12	-16
CC(C)(C)NC(=O)N1CCN(S(=O)(=O)c2ccc3c(c2)CCC3)CC1	nt	7	nt	1	3	nt	nt	12
C[C@@H]1CN([C@@H](C)CO)C(=O)CCCn2nncc2CO[C@@H]1CN(C)C(=O)Nc1cccc2ccccc12	-30	nt	nt	-3	-1	nt	nt	-7&3
Cc1oc2c(C)c3oc(=O)c(CC(=O)N[C@@H](CC(C)C)C(=O)N[C@@H](Cc4ccccc4)C(=O)O)c(C)c3cc2c1C	nt	2	i	8	3	21	47	-19
COCCCNC(=O)CSC1=Nc2ccccc2C2=NC(CC(=O)NCc3ccccc3)C(=O)N12 (configuration not stated)	-63	nt	i	-5	1	2	-9	-11
O=C(N/N=C/c1ccco1)c1cc(-c2cccc(Br)c2)nc2ccccc12	-23	31	i	-1	-15	5	3	-4
Cc1ccc(NC(=O)COC(=O)c2ccco2)cc1S(=O)(=O)N1CCOCC1	-18	13	nt	5	1	nt	nt	-15
Cc1ccc(C(c2nnnn2C(C)(C)C)N2CCC(C)CC2)cc1 (configuration not stated)	-83	-6	i	-8	-1	-9	-7	-18
CCSc1nnc(-c2cccnc2)n1-c1ccc(Cl)c(C)c1	nt	-5	i	-2	3	1	-10	-11
Cc1nc(NC(=O)c2c(-c3ccccc3Cl)noc2C)sc1C	-10	-6	i	0	-7	2	-7	-11
CCOC(=O)c1c(C)[nH]c2cc(Br)c(OC)cc12	nt	5	i	-1	-3	4	5	-15
Cc1nn(-c2ccccc2)c(Cl)c1C(=O)NNC(=O)c1ccccc1O	-9	35	nt	7	-2	nt	nt	-14
Nc1nnn(CC(=O)N/N=C/c2ccccc2Cl)n1	4	-10	i	1	0	-15	-3	-3
CC12CCC(C(=O)NNC(=O)c3ccc(F)cc3)(OC1=O)C2(C)C (configuration not stated)	-6	17	i	-2	7	11	-3	-8
COC(=O)Cn1c(C)c(/C=C/c2cc[n+](C)cc2)c2ccccc21	-16	-8	i	-186	-5	?	?	-10
Cc1cccc(N2C(=O)c3cccc4c(N5CCCCC5)c([N+](=O)[O-])cc(c34)C2=O)c1C	7	13	+	1	1	14	6	nt
COc1ccc(/C=C(\C#N)C(=O)OCC(=O)Nc2c(C)cccc2C)cc1	-7	-18	i	0	0	-2	-6	nt
O=C(Nc1ccccc1N1CCCCC1)c1cc(S(=O)(=O)N2CCOCC2)ccc1Cl	10	-4	i	-10	-10	nt	nt	25
CCn1c(=O)[nH]c(=O)c2c(N)c(C(=O)c3cc(F)ccc3F)sc21	8	-17	i	-1	3	4	-2	2
CCN(CC)C(=O)C1=C(C)N(Cc2ccc(OC)cc2)C(=O)C(CC(=O)NCCCN(C)C)C1 (configuration not stated)	0	nt	nt	2	4	nt	nt	-2
Cc1ccc2[nH]c(=O)c(CN(c3cccc(C)c3C)S(=O)(=O)c3ccccc3)cc2c1	nt	22	i	-1	-5	3	-10	-13
COc1ccc(C(=O)c2ccccc2Cl)cc1OC	-12	-9	i	2	-1	-10	4	nt
CCSc1nnc(-c2ccccc2NC(=O)CC)c(=O)[nH]1	-62	-16	nt	-1	3	13	-14	-24

Further results follow:
SMILES	HIV Env fusion	CSC inhib	Rce1 inhib	MT1-MMP act inh	MT1-MMP act inh RFP	PABP FP inh	eIF4H FP inh	Yeast UUG start
CCC(CO)NCc1sccc1C (configuration not stated)	-6	-1	i	1	2	0	-13	nt
COc1cc2nc(CN3CCN(S(=O)(=O)c4ccccc4[N+](=O)[O-])CC3)[nH]c(=O)c2cc1OC	14	nt	nt	-1	-2	nt	nt	-7
Cc1cc(-c2ccc(S(=O)(=O)N(C)Cc3ccccc3)cc2)on1	3	19	i	-5	-3	-1	-5	-24
Cc1ccc(S(=O)(=O)N2CCN(C(=O)c3ccc([N+](=O)[O-])cc3)C2)cc1	-15	-5	i	-1	0	0	-7	nt
COc1ccc(NC(=O)C(=O)NCC(=O)Nc2cccc(C(F)(F)F)c2)cc1	5	-1	i	-1	-7	2	-3	-23
Cc1cc2c(cc1C)N(C(=O)CSc1nncn1C)C(C)(C)c1ssc(=S)c1-2	nt	7	i	4	-5	-9	-10	-23
Nc1nc(NCc2ccco2)nc(N2CCCC2)c1[N+](=O)[O-]	15	8	i	1	-5	4	-10	nt
O=C(NC1CCCN(c2ccc(C(F)(F)F)cn2)C1)c1ccnc(Cl)c1 (configuration not stated)	25	-7	i	1	-2	-6	-8	-23
CCC(C)(O)c1[nH]c2ccc(C(=O)OC)cc2c1C (configuration not stated)	-54	-4	i	1	-5	5	-6	-13
Cc1ccc(S(=O)(=O)NCC(=O)N(CC2CCCO2)C(C(=O)NC2CCCCC2)C(C)C)cc1 (configuration not stated)	19	nt	i	-1	3	0	-4	2
CCCNC(=O)CCn1c(-c2ccc(C)cc2)cc(C(=O)OCC)c1C	-65	-8	i	0	-8	2	0	-5
Cc1ccc(OCC(=O)N/N=C\c2ccco2)c(C)c1	-57	-2	i	2	2	2	-4	-2
O=C(NCc1ccccc1)N1CCC(n2cnc3cc(F)ccc32)CC1	11	-4	i	3	-1	-1	8	-8
CC(C)CC(=O)N1CCN(CC2CC=CCC2)CC1 (configuration not stated)	nt	-1	i	-1	6	-9	1	-14
CN(C(=O)CSc1nc(O)cc(=O)n1C1CCCC1)c1ccccc1	12	-8	i	1	2	4	-12	-17
COc1cc(NC(=O)N2c3ccccc3Sc3ccccc32)c(C(=O)O)cc1OC	-481	-12	i	1	0	12	-4	-21
Cc1ccc(C(C)NC(=O)c2cccnc2)cc1 (configuration not stated)	-6	nt	i	0	-3	nt	nt	1
CCOc1ccc(NC(=O)N2CCC(n3nnc4ccccc43)CC2)cc1	-6	-14	i	-2	2	-4	2	nt
COc1cccc2c1Oc1ncccc1N(C(=O)CCC(=O)NCc1ccccc1)C2	15	-8	i	3	4	-5	-4	-23
Cc1nc2ccccc2c2oc(C(=O)N3CC(C)CC(C)C3)cc12 (configuration not stated)	2	-11	i	0	-2	9	-9	-4
COc1cc(CC(NC(C)=O)C(=O)NC2CCN(C(=O)C3CC3)CC2)cc(OC)c1 (configuration not stated)	4	10	i	-15	2	-7	-2	nt
Cc1cc(S(=O)(=O)N2CCc3ccccc3C2)ccc1F	-6	-4	i	0	-3	-10	-5	-16
CC(C)[C@H]1CN=C2N(C[C@H](C)NC(=O)CCC3CCCCC3)[C@H](Cc3ccc(O)cc3)CN21	15	-4	i	-2	-4	-8	-12	-1
CCOC(=O)c1sc(NC(=O)Cc2c(F)cccc2Cl)nc1C	-40	27	i	-15	-15	3	-2	nt
CCCCNC(=O)c1cc(C)nn1-c1ccccc1	-2	-7	i	-1	-2	1	-3	-15

The order is random; any-hit rate near 2.9%.
